Screening results (PubChem)
D2 ag – human D2 receptor agonism in beta-arrestin assay. P14416. DiscoveRx PathHunter D2 beta-arrestin, luminescence, 90 min; 100% = 57 uM dopamine signal. activation, % (concentration not given with the values). hit rate 0.084% among 360,000; in the data active = activation above about 40%; inconclusive = about 15% to 40%; inactive = below about 15%; also: compound concentration not given in the record; the text of the record calls up to 30% inactive
Target sequence (P14416 whole entry, looked up): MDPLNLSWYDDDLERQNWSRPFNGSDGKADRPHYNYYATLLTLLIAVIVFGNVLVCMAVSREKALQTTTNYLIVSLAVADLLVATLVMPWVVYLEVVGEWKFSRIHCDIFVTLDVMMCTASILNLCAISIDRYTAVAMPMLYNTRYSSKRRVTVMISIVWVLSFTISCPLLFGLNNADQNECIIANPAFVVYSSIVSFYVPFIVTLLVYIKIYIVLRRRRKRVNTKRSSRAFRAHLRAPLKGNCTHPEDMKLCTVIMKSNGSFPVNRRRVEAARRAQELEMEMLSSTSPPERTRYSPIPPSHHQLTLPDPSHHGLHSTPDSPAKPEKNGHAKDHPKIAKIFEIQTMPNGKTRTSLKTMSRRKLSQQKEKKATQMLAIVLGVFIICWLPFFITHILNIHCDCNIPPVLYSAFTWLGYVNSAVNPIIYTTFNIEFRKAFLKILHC
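Agonist mode: compounds alone added to overnight-plated D2 PathHunter cells for 90 min at 37 C, with 57 uM final dopamine (EC100) defining full response. Beta-arrestin recruitment detected by chemiluminescent reagent, read after 1 h at ambient temperature.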
Six1-Eya2 blk – inhibitors of human Six1/Eya2 interaction. Q15475+O00167. AlphaScreen GST-Six1/His-Eya2 binding, biochemical; stronger effect = lower value; control for the full effect not named in the record. activity change, % (concentration not given with the values). hit rate 0.56% among 360,000. AID 651725; in the data active = activity change below about -65%; inconclusive = about -30% to -65%; inactive = above about -30%; also: % is scaled to controls: 0 for no effect and ±100 for the full control effect
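Compounds are tested against tagged Six1 and Eya2 proteins bridged by glutathione donor and nickel acceptor beads; after a one-hour incubation at 37 °C without light, AlphaScreen emission is recorded.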
D2 potentiator – human D2 receptor positive allosteric modulation | hit rate 0.23% among 360,000 | potentiation, % (no concentration beside the values) | AID 624464 | DiscoveRx D2 beta-arrestin cells, luminescence, 90 min; 100% = 57 uM dopamine signal; active = potentiation of 50% or more; inconclusive = 30% to 50%; inactive = 30% or less;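 also: compound concentration not given in the record; tested on top of an EC20 dose of dopamine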
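PathHunter beta-arrestin assay in DiscoveRx D2 cells. Compounds were added with an EC20 of dopamine (50 nM final) for 90 min at 37 deg C. Luminescence was read 1 h after detection reagent, with 57 uM dopamine as the EC100 control.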
PINK1 modulator – modulators of PINK1 expression; Potency, µM (doses to about 76.6 µM), without a hit: top-dose activation (PINK1 increase), hits mostly activators; hit rate 0.2% among 410,000; PINK1 immunofluorescence, high-content cytometry, 24 h; active = well fitted activation curve with a large enough effect; inconclusive = small, poorly fitted or top-dose-only effect; inactive = flat fitted curve, though single readings scatter; cell line not stated here;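 also: potency is read from the fitted curve at half-maximal effect; % of control where 0% means no effect; nearly all actives have a fitted effect of over 65% in size; a mitochondrial uncoupler was the plate control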
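Readout is PINK1 immunofluorescence, quantified alongside mitochondrial, cell and nuclear markers by laser-scanning microplate cytometry. Cells from a stable line were exposed to compound titrations (5 concentrations) for 24 hours, with CCCP controls.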
TRPML1 inh – inhibitors of human TRPML1 channel; TRPML1-inducible cells, Ca2+ dye fluorescence, FDSS; stronger effect = lower value; inhibition of EC80 agonist-evoked calcium signal; AID 624415; Q9GZU1; hit rate 0.02% among 390,000; activity change, negative = inhibition, % (test concentration not listed); in the data active means activity change below about -50%; inconclusive means about -30% to -50%; inactive means above about -30%;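 also: stimulus is agonist 54-4 at its EC80 concentration; % is scaled to controls: 0 for no effect and ±100 for the full control effect; compound concentration not given in the record; the text of the record puts the active cut at -80%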
Target sequence (Q9GZU1 whole entry, looked up): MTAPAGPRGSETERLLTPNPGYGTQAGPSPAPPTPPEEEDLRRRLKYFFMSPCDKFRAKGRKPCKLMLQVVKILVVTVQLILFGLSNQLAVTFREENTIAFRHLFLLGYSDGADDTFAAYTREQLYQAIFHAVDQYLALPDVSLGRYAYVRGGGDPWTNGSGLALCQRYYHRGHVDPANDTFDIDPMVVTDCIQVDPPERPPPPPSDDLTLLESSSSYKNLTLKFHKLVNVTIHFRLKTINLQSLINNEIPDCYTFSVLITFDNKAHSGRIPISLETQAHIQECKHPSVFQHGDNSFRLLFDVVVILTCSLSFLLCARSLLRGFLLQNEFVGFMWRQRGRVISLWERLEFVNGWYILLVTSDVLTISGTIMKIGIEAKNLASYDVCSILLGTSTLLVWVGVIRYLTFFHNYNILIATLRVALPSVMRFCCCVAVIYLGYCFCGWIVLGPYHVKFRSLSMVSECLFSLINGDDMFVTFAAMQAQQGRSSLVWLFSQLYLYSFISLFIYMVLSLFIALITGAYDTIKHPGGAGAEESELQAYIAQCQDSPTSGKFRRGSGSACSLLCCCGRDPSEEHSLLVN
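TRPML1-DL cells, Tet-induced overnight (~16 h, 37 °C) at 1,500 cells/well, were loaded with Ca8 no-wash dye plus quencher for 45-90 min at room temperature. Compounds were pinned during FDSS kinetic reading; agonist 54-4 at EC80 (4 uM final) then added.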
TRPML1 agonist – activates the human TRPML1 channel | Q9GZU1 | TRPML1-expressing cells, Ca2+ dye fluorescence, FDSS; host cell line not named in the record; reference of the full effect not given here | activation, % (test concentration not listed) | hit rate 0.12% among 410,000; in the data active = activation above about 50%; inconclusive = about 30% to 50%; inactive = below about 30%; also: 0% is about no effect; the text of the record puts the active cut at 80%
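Tet-induced TRPML1-DL cells, 1,500 per well, cultured overnight, were loaded with a no-wash Ca2+ dye for 45–90 min. Calcium fluorescence was recorded on the FDSS for 110 s after compound addition, before the EC80 agonist (4 uM 54-4) was added.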
Numbers without * were called inactive; ? = inconclusive; · = no result given; & = joins results of further samples; [ ] = remark or other dose.

SMILES | D2 ag | Six1-Eya2 blk | D2 potentiator | PINK1 modulator | TRPML1 inh | TRPML1 agonist
Cc1cc(OCCn2cc(/C(N)=N/O)c3ccccc32)ccc1Cl | 8.9 | -8 | ? | · | 2 | -0.6
N#C/C(=C\c1c[nH]c2ccccc12)C(=O)NC1CCCC1 | -1.7 | -7 | -3 | 4.0% | -11 | 2.1
O=C(Nc1ccccc1)C1CCCN1C(=O)Nc1ccccc1[N+](=O)[O-] (configuration not stated) | -7.3 | 0 | -1 | 0.1% | 11 | 3.2
CC(Oc1cccnc1[N+](=O)[O-])C(=O)Nc1cccc(Cl)c1 (configuration not stated) | 4.8 | -3 | -7 | 2.8% | 0 | -0.4
CCOC(=O)Cc1nn(Cc2nc(-c3ccc(C)cc3)cs2)c(=O)c2ccccc12 | -2.9 | 7 | -14 | 1.4% | 22 | -0.8
COc1ccc2o/c(=N\O)c(C(=O)Nc3ccc(C)cc3)cc2c1 | -5.9 | 1 | 3 | 1.3% | 13 | 3.6
COc1ccc(Cl)cc1NC(=O)NC(C)C(C)(C)C (configuration not stated) | 6.3 | 16 | -18 | 1.9% | -9 | -0.9
Cc1ccc(SC[C@H](CC(C)C)N2CCN(CCc3ccccc3)CCC2=O)cc1 | -1.3 | -13 | -20 | 23% | 4 | 0.8

Of the compounds above, three have a halogen:
SMILES | D2 ag | Six1-Eya2 blk | D2 potentiator | PINK1 modulator | TRPML1 inh | TRPML1 agonist
Cc1cc(OCCn2cc(/C(N)=N/O)c3ccccc32)ccc1Cl | 8.9 | -8 | ? | · | 2 | -0.6
CC(Oc1cccnc1[N+](=O)[O-])C(=O)Nc1cccc(Cl)c1 (configuration not stated) | 4.8 | -3 | -7 | 2.8% | 0 | -0.4
COc1ccc(Cl)cc1NC(=O)NC(C)C(C)(C)C (configuration not stated) | 6.3 | 16 | -18 | 1.9% | -9 | -0.9

Continuation.
SMILES | D2 ag | Six1-Eya2 blk | D2 potentiator | PINK1 modulator | TRPML1 inh | TRPML1 agonist
Cc1ccccc1CN1[C@@H](CC2CCCCC2)COCCS1(=O)=O | -1.9 | 6 | -8 | -0.7% | 19 | 4.1&0.4
O=C(c1ccco1)N1CCN(C(=O)c2cc3c(=O)oc4ccccc4c3s2)CC1 | -1.1 | -2 | 0 | 0.2% | -2 | -0.9
C=CCC[C@@H](Cc1ccc(F)cc1)C(=O)OC[C@@H](Cc1ccccc1)NC(=O)[C@@H](CC=C)CC(=O)N[C@@H](CO)Cc1ccccc1 | -3.0 | -3 | -4 | 3.8% | -2 | 0.8
CCn1c(SCc2ccc(C(=O)OC)o2)nnc1-c1c[nH]c2ccccc12 | 1.5 | -1 | -1 | -1.0% | 28 | 0.3
CC(=O)c1ccc(OC2OCCOC2Oc2ccc(C(C)=O)cc2)cc1 (configuration not stated) | -1.3 | 3 | 4 | 2.1% | -10 | 1.1
CCCCC(=O)N(C)c1c(CC)nc2c(OCc3cc(Cl)cc(Cl)c3)cccn12 | -2.7 | 24 | -5 | ? | · | 0.0
O=C(NN1C(=O)c2ccc(-c3ccc4c(c3)C(=O)N(NC(=O)c3cccnc3)C4=O)cc2C1=O)c1cccnc1 | 1.7 | ? | -34 | 0.2% | -20 | 1.4
Nc1ccc(S(=O)(=O)Nc2cnc3c(Cl)cccc3n2)cc1 | -0.3 | 1 | -11 | 2.1% | -15 | 0.5
COC(=O)c1sccc1NC(=O)CSc1ccccc1NC(=O)CNC(C)C | -6.9 | -4 | -3 | 0.3% | -8 | -0.7
O=C(c1ccc(F)cc1)N1CCC(c2nc3ccccc3o2)CC1 | · | · | · | 0.5% | -17 | 3.5
COc1ccc(Cn2cc(C(=O)c3ccccc3)c(=O)c3cc(OC)ccc32)cc1 | -1.8 | -2 | 3 | 6.5% | 0 | 0.4
O=C(Cn1nnnc1-c1ccccc1F)Nc1ccc(OC(F)(F)F)cc1 | · | · | · | 0.2% | -20 | 3.0
O=C(Cn1c(=O)n(Cc2ccco2)c(=O)c2c3c(sc21)CCCC3)Nc1ccccc1 | -4.5 | -7 | -18 | 1.1% | 11 | 0.0
Cc1ccc2c(c1)nnn2C1CCN(CC(=O)N2c3ccccc3CC2C)CC1 (configuration not stated) | -4.9 | -4 | -30 | -4.8%[38.3 µM] | -2 | 0.4
CCOc1ncccc1C(=O)Nc1ccc2nc(C)sc2c1 | 1.7 | -1 | 1 | 0.5% | -12 | -0.5
CCOC(=O)C(C(C)=O)c1nc(C)nc2c1nnn2Cc1ccccc1Cl (configuration not stated) | -2.2 | 2 | -3 | 0.4% | -1 | 0.8
CCn1cc(C(=O)NCc2ccc(C)cc2)c(=O)c2cc(S(=O)(=O)N(C)C)ccc21 | -5.7 | 0 | -9 | 1.3% | -9 | 0.2
CCC(=O)Nc1cc(NC(=O)CSc2ncc(-c3ccc(F)cc3)n2Cc2ccco2)ccc1C | -6.4 | -10 | -25 | -1.1% | 4 | -0.3
CC(C)(C)NC(=O)C[C@H]1C[C@H](C(=O)N2CCCCC2)[C@@]2(CCc3ccccc3)c3[nH]c4ccc(Cl)cc4c3CCN2C1=O | -2.8 | -1 | -3 | 2.9% | 9 | -0.7
O=C1C(O)CC2c3ccccc3CC3(CCCC3)N12 (configuration not stated) | 1.0 | 4 | -5 | 0.1% | 8 | 0.2
Cc1cc(Nc2ccc([N+](=O)[O-])cc2)c2ccccc2n1 | -6.5 | -15 | -3 | 11% | 12 | 0.1
C=CCN1C(=O)/C(=C\c2ccc(C)cc2)N=C1SCC(=O)NCCC | -0.7 | 5 | -15 | -1.9% | 26 | -1.2
COc1ccccc1CCNC(=O)c1c(C)nn(CC(C)C)c1Cl | -3.4 | 3 | -1 | 1.2% | 32 | 1.7
CCc1nnc(NC(=O)C2CCCN(c3nc4ccccc4s3)C2)s1 (configuration not stated) | -0.5 | -1 | 2 | 2.6%[38.3 µM] | -20 | 1.3

(listing goes on)
SMILES	D2 ag	Six1-Eya2 blk	D2 potentiator	PINK1 modulator	TRPML1 inh	TRPML1 agonist
CC(C)c1ccc(NC(=O)CSc2nc(=O)n(CCCN3CCOCC3)c3c2CCC3)cc1	-5.9	-9	-12	-1.7%	-1	0.3
CCc1c(SCCC(=O)O)nc2ccccc2c1C	-3.0	13	1	-0.5%	-3	-1.2
O=C(CNC(=O)c1ccccc1F)OCc1cc(=O)n2nc(C3CCCCC3)sc2n1	·	·	·	-0.5%	8	-1.3
CC12CCC(C)(c3nc4ccccc4nc31)C2(C)C	-5.6	9	-4	3.8%	-17	0.1
CCC/C(=N\NC(=O)CNC(=O)/C=C/c1ccco1)c1ccccc1	-4.0	2	1	0.7%	-1	1.1
C#CCOC(=O)c1ccccc1C(=O)OCC#C	-1.3	3	-19	-0.2%	0	1.6
Cc1ccccc1OCc1nc(-c2ccc(-n3cccc3)cc2)no1	-1.5	1	-1	3.8%	-11	1.6
O=C(O)c1cc(NN=Nc2ccc(Br)cc2)cc([N+](=O)[O-])c1	-3.4	-1	-27	3.1%	-3	0.2
O=C(Nc1cccc(C(F)(F)F)c1)c1ccco1	-0.8	7	-18	0.0%[38.3 µM]	-1	-0.6
COc1ccccc1C(=O)N/C(=C\c1cn(S(=O)(=O)N(C)C)c2ccccc12)C(=O)NCCN1CCOCC1	4.8	-1	1	1.8%	12	0.0
CCN1C(=O)[C@H]2[C@@H](c3ccc(-c4ccccc4)c(OC)c3)N[C@@](CC(C)C)(C(=O)OC)[C@H]2C1=O	-1.3	-17	-15	1.8%	7	-0.5
Cn1cccc1CNC1CCCCC1	-1.7	-4	-24	2.5%[38.3 µM]	7	-0.1
CCOC(=O)Cc1nn(Cc2ccc(Cl)cc2)c(=O)c2ccccc12	-2.8	0	-13	-0.4%	-5	2.0
CC(=O)c1ccc(OCCCC(=O)NCCc2ccccc2)cc1	1.8	1	8	1.0%	-9	-0.5
O=C(NNC(=O)c1ccccc1Cl)c1ccccc1Cl	0.2	0	-4	1.0%	-10	-0.2
O=C(Cn1ccc2cc(S(=O)(=O)N3CCCCCC3)ccc21)NCc1ccccc1Cl	·	·	·	1.1%	-12	0.4
CC1=NC2(CCCc3c2no[n+]3[O-])N(O)C1(C)C (configuration not stated)	5.1	-1	?	0.5%[38.3 µM]	25	1.1
Cc1cccn2c(=O)c3cc(C(=O)NC4CCCC4)sc3nc12	1.5	-8	-3	1.8%	12	0.4
COC(=O)[C@H](Cc1ccc(O)cc1)NC(=O)Cn1cnc(C(=O)Nc2ccc(C)c(C)c2)n1	-2.2	-3	8	0.2%	-5	-0.3
O=C(NCC(=O)N(c1ccc(Cl)cc1)C(C(=O)NC1CCCC1)c1cccnc1)c1ccco1 (configuration not stated)	2.1	0	-6	0.5%	-1	0.5
CC1=NN(c2ccccc2)C(=O)/C1=C/C=C/c1ccccc1	-1.7	-5	3	-2.4%	1	0.4
Cc1ccc(C(=O)NNC(=O)c2cccc(S(=O)(=O)N3CCOCC3)c2)cc1	-0.9	-1	-5	0.6%	-25	-0.2
Cc1ccccc1N1CCN(C2CCCN(C(=O)c3cc[n+]([O-])cc3)C2)CC1 (configuration not stated)	-2.9	0	-18	0.5%	15	-1.0
CN(C(=O)c1cccc(NC(=O)C2CCN(C(=O)OC(C)(C)C)CC2)c1)C1CCCCC1	4.5	1	-9	0.3%	0	-0.7
C#Cc1ccc([C@H]2C=C(C(=O)O)O[C@@H](OCCCCO)C2)cc1	-0.7	9	-9	1.3%	-3	-0.1
Cc1noc(C)c1COc1ccccc1C(=O)N1CCN(S(=O)(=O)c2cccc([N+](=O)[O-])c2)CC1	0.8	-1	12	2.2%	0	4.2
COc1cccc(-n2nnnc2SCC(=O)Nc2cccc(NC(C)=O)c2)c1	-2.4	-1	-12	?	-14	1.4
Fc1ccc(C(CCNCc2cccs2)c2ccco2)cc1 (configuration not stated)	-0.9	-5	-8	14%	4	-0.7
CCC(CO)NC1=CC(=O)CCC1 (configuration not stated)	-4.2	8	-7	1.2%	-4	-0.3
Cc1ccc(S(=O)(=O)N2CCC(=O)N([C@H](COCc3ccc(Cl)cc3)Cc3ccccc3)CC2)cc1	·	0	·	0.3%	·	4.4
O=C1CCN(C(=O)Nc2ccccc2Cl)N1	-2.1	-1	-3	-2.7%	-3	-1.1
CCOc1ccc(NC(=O)c2ncoc2-c2ccco2)cc1	·	·	·	-0.1%	1	0.2
CCN(c1ccccc1)S(=O)(=O)c1cccc(C(=O)N(C)CCOc2ccccc2)c1	-0.2	6	-17	-0.3%	21	3.0
CCNC(=S)NNC(=S)NCc1ccccc1	-0.7	3	-15	-0.1%	8	0.4
O=C(NCc1ccccc1Cl)C1CCN(C(=O)N2CCOc3ccccc32)CC1	·	·	·	7.7%	12	-0.1
